Screening results: PubChem, several laboratories
Yeast UUG start: modulators of yeast start codon fidelity, primary screen, whole organism, S. cerevisiae, single point, plate reader. S. cerevisiae UUG-firefly luciferase reporter, luminescence/redox ratio. activity score, % at 18.7 µM. hit rate 0.13% among 350,000. AID 602363, 2012;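 active = replicate mean at a twofold rise or more, about +100% in these data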;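 note: firefly luciferase made from a UUG start codon reports start codon fidelity; reporter light over untreated wells divided by growth signal over untreated wells; some hits fall short of that in this replicate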
MT1-MMP act inh: blockers of MT1-MMP proenzyme processing, primary screen, HT1080 RFP-PRO-GFP cells, GFP/RFP fluorescence. AID 651647, 2012. GFP/RFP ratio fluorescence, overnight; percent of plate control window, DMSO zero. Matrix metalloproteinase-14 (Homo sapiens), P50281. GFP/RFP ratio change, % at 20 µM. hit rate 0.061% among 360,000;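 active = GFP/RFP ratio change of at least 30% with cell ATP level not reduced by more than half and red fluorescence within 50% of control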; note: strong numbers were not always called active
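Assay system: RFP-PRO-GFP reporter HT1080 cells; read-out basis: GFP/RFP fluorescence ratio; benchmarks: DMSO wells and RFP-L50D-GFP cells; doses: 20 µM single dose, 1% DMSO; schedule: overnight cell settling, then overnight compound exposure, 37 °C, 5% CO2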
CSC inhib: cancer stem cell viability inhibitors, primary screen, luminescence. cancer stem cell-like cells viability. inhibition, % at 7.5 µM. hit rate 1.1% among 300,000. AID 2717, 2010;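 active = mean at 75% or more and at least half the replicates too; inconclusive = mean and replicates disagree; tested in HMLE shEcad cells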;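 note: 0% = median of negative and 100% = median of positive control wells; the first replicate is given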
Env fusion inh: inhibitors of HIV-1 Env-driven cell-cell fusion, primary screen, HeLa-JRFL effector, CEM21 target cells, luciferase | inhibition, % at 12.3 µM | hit rate 1.1% among 360,000;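 active = mean replicate inhibition score of at least 50 and every replicate individually at or above 50; inconclusive = only one of the two criteria met; inactive = mean below 50 and not all replicates reaching 50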;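 note: 0% = plate neutral controls and 100% = maraviroc near 300 nM; one replicate is shown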
eIF4H inh: human eIF4H binding inhibitors, primary screen, translation initiation inhibitor project, biochemical, uHTS, fluorescence polarization. hit rate 0.94% among 290,000. AID 2012, 2009. eIF4H fluorescence polarization binding assay. inhibition, % at 35 µM;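 active = 50% or more with normal probe brightness, or confirmed in later tests; inconclusive = above 50% with abnormal brightness, or retests that disagree; inactive = below 50% or failed in later tests; about a fifth of its hits are not listed in these tables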;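 note: calls also rest on retests at 20 µM and on dose response follow-up; 0% = protein and probe with vehicle and 100% = probe without protein; strong numbers were not always called active; many hits fall short of the cut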
Rce1 inhib: yeast Rce1p protease inhibitors, primary screen, biochemical, fluorescence, cell-free homogeneous; CAAX prenyl protease 2 (Saccharomyces cerevisiae (strain ATCC 204508 / S288c)), Q03530; yeast membranes, quenched prenylated peptide cleavage fluorescence; calls only; hit rate 0.27% among 290,000; AID 2563, 2010;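 active = fall in fluorescence gain of 50% or more versus controls, with final raw signal at or below 3038400; inconclusive = same 50% fall but final raw signal above 3038400; inactive = fall in fluorescence gain under 50%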;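 note: plate controls were neutral control wells for no effect and wells lacking membranes for full effect; tested at 10 µM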
PABP polyA inh: PABP poly(A) RNA binding inhibitors, primary screen, biochemical, fluorescence polarization, uHTS. Polyadenylate-binding protein 1 (Homo sapiens), P11940. inhibition, % at 35 µM. hit rate 1% among 290,000. AID 2014, 2009;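 active = 50% or more with normal probe brightness, or confirmed in later tests; inconclusive = above 50% with abnormal brightness, or retests that disagree; inactive = below 50% or failed in later tests; about a fifth of its hits are not listed in these tables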;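 note: calls also rest on retests at 20 µM and on dose response follow-up; controls were probe without protein and protein plus probe with vehicle; some compounds called inactive have numbers as strong as hits; many hits fall short of the cut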
Target sequence (P11940 whole entry, looked up): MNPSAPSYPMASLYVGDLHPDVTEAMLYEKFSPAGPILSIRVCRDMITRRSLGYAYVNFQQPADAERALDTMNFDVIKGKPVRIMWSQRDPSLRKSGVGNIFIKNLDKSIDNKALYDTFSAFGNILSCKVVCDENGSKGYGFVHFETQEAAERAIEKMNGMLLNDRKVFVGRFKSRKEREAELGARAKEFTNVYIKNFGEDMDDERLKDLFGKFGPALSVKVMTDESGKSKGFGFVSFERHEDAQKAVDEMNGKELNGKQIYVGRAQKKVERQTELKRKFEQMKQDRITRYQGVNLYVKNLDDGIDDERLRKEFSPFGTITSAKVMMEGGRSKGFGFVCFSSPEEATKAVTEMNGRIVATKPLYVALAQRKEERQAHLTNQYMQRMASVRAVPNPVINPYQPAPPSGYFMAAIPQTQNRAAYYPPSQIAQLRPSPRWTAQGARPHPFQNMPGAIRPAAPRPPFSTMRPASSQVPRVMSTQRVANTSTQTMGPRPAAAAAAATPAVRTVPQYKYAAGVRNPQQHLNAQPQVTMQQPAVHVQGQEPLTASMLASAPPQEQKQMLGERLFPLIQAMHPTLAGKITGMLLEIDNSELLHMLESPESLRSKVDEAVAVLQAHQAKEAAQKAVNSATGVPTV
MT1-MMP act inh RFP: also measured in MT1-MMP act inh; calls as there; RFP signal change, %; measured here: RFP expression control read;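 0 = vehicle wells; hits needed this value within 50% of zero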
The depositor's hits bear a star; i = inactive; ? = inconclusive; . = not tested or not shown; + = active, no number.

Fields: Yeast UUG start	MT1-MMP act inh	MT1-MMP act inh RFP	CSC inhib	Env fusion inh	eIF4H inh	Rce1 inhib	PABP polyA inh
#1 COc1cc(OC)cc(C2(C#N)CCN(C)CC2)c1
  -12	3	9	-2	12	-10	i	0
#2 NP(=O)(OCCCCc1ccccc1)Oc1ccccc1Cl (stereo not given)
  5	-3	5	2	8	1	i	-5
#3 Cc1nc2cc(C(=O)N3CCC4(CC3)OCCO4)ccc2n1-c1cccc(F)c1
  -6	2	1	-10	.	-7	i	-11
#4 CC1(C)C2([N+](=O)[O-])CN3CC1([N+](=O)[O-])CN(C2)C3c1cccnc1 (stereo not given)
  .	.	.	-10	1	-4	i	7
#5 CC(Cc1ccccc1)NC(=O)CCCCC(=O)NC(C)Cc1ccccc1 (stereo not given)
  -6	-1	-2	-1	40	-1	.	9
#6 CCCC(=O)NC1=C(N2CC2)C(=O)C(NC(=O)CCC)=C(N2CC2)C1=O
  11	8	3	.	16	.	.	.
#7 COC(=O)c1ccc(N=C(c2ccccc2)c2c(O)n(C)c(=O)n(C)c2=O)cc1
  -5	-3	6	-1	-3	?	i	?
#8 CC12CCC3C(CC=C4CC(O)CCC43C)C1C/C(=C\N1CCCC1)C2=O (stereo not given)
  .	.	.	.	.	-8	i	11
#9 C[C@]12CCC(=O)C=C1C=CC1C2CC[C@]2(C)C(=O)CCC12 (stereo not given in full)
  .	-4	-2	-16	-29	.	.	.
#10 COc1ccc(N2CC2c2ccncc2)cc1 (stereo not given)
  .	-1	1	-5	-4	-7	i	-3
#11 CC(=O)N1CC(=O)Nc2ccc(Br)cc2C1c1ccc(F)cc1 (stereo not given)
  -7	0	-2	-5	17	5	i	2
#12 CC1(C)NC(=O)[C@H]2CCCN21
  -17	0	1	-19	-3	.	i	.
#13 O=C1Nc2ccccc2C1Cc1nc2ccccc2c(=O)n1-c1ccccc1 (stereo not given)
  .	1	6	4	-20	-7	i	-12
#14 O=c1c2ccccc2[nH]c(=S)n1-c1cccc(Cl)c1
  -13	0	0	.	-2	.	.	.
#15 COCc1cc(OC(=O)N(C)C)nc(-c2ccc(C)c(Cl)c2)n1
  -1	-4	0	8	20	-3	i	1
#16 O=[N+]([O-])c1ccc(NC2CCN(Cc3ccccc3)CC2)c2ccncc12
  -3	-4	-5	0	-4	19	i	22
#17 Cc1ccc(-n2c(O)c(C=NCCN3CCNCC3)c(=O)[nH]c2=S)cc1
  -27	-1	4	-4	-13	1	i	-5
#18 CN(C(=O)CN1CC=C(c2ccccc2)CC1)c1c(N)n(Cc2ccccc2)c(=O)[nH]c1=O
  .	1	4	-7	0	-15	i	-2
#19 Cc1cc(Oc2ccc(C(F)(F)F)cc2[N+](=O)[O-])c2c3c(c(=O)oc2c1)CCC3
  -26	6	6	-9	-4	-10	i	-2
#20 C[C@]12CC[C@H](O)CC1=CC(=O)C1C2CC[C@]2(C)C(=O)CCC12 (stereo not given in full)
  -14	-2	0	7	-5	.	.	.

Some of the entries so far, bar-delimited:
no. | SMILES | Yeast UUG start | MT1-MMP act inh | MT1-MMP act inh RFP | CSC inhib | Env fusion inh | eIF4H inh | Rce1 inhib | PABP polyA inh
19 | Cc1cc(Oc2ccc(C(F)(F)F)cc2[N+](=O)[O-])c2c3c(c(=O)oc2c1)CCC3 | -26 | 6 | 6 | -9 | -4 | -10 | i | -2
8 | CC12CCC3C(CC=C4CC(O)CCC43C)C1C/C(=C\N1CCCC1)C2=O (stereo not given) | . | . | . | . | . | -8 | i | 11

Next compounds:
Fields: Yeast UUG start	MT1-MMP act inh	MT1-MMP act inh RFP	CSC inhib	Env fusion inh	eIF4H inh	Rce1 inhib	PABP polyA inh
#21 COC(=O)C1=C(c2ccc(OC(F)(F)F)cc2)C[C@@H]2CC[C@H]1N2C(=O)NCCOc1ccccc1
  1	1	1	-3	-11	.	.	.
#22 Cc1c(Cl)cccc1N1C(=O)NC(=O)/C(=C\c2cc(C)n(-c3cccc(C(=O)O)c3C)c2C)C1=O
  -4	-1	2	-12	25	14	i	8
#23 COC(=O)C1=C(c2ccc(F)cc2F)C[C@@H]2CC[C@H]1N2C(=O)NCCNC(C)=O
  -15	2	5	-9	.	.	.	.
#24 CN1[C@@H]2CC[C@H]1CC(OC1c3ccccc3CCc3ccccc31)C2 (stereo not given in full)
  -36	-7	-6	33	-23	.	.	.
#25 COc1ccc(-c2nn(CCC#N)cc2C(=O)Nc2ccccc2)cc1OC
  -22	2	2	-18	6	-12	i	1
#26 Clc1cccc(Cl)c1C1N2CCCN12 (stereo not given)
  -5	2	5	14	-7	3	i	3
#27 Fc1ccccc1CNCCc1ccc2c(c1)OCO2
  4	-4	-4	-8	-15	3	i	4
#28 CC(=O)Nc1ccccc1C(=O)OCC(=O)c1ccccc1Cl
  -4	6	2	2	-70	-6	i	-3
#29 O=C1C(Cc2cnc[nH]2)NC(=S)N1c1ccccc1 (stereo not given)
  -3	2	2	0	3	-4	i	-3
#30 COc1ccc(C(O)CNC(C)C)c(F)c1OC (stereo not given)
  5	1	6	-9	22	.	i	.
#31 CCOC(=O)C1CCN(/C=C2/C(=O)NC(=S)N(c3ccccc3F)C2=O)CC1
  -9	1	5	-7	18	-3	i	7
#32 COc1ccc(-c2nc3ccccc3c(=O)o2)cc1
  1	2	4	-1	-9	10	i	0
#33 CN1CCN(C(=O)COc2ccc3ccccc3c2)CC1
  .	2	2	-12	-2	-2	i	1
#34 O=C(Cn1nc(-c2ccc(Cl)cc2)ccc1=O)N1CCC2(CC1)OCCO2
  4	2	4	5	-3	-1	i	-2
#35 Cc1ccc(NC(=O)CSc2nnc([C@@H](N)Cc3c[nH]c4ccccc34)o2)c(C)c1
  -2	2	9	-8	-29	-4	i	-7
#36 COc1ccc(C(=O)C2CCCN(C3CSCCSC3)C2)cc1OC (stereo not given)
  .	3	2	-3	8	-6	i	0
#37 CC12CC[C@H]3[C@@H](CCC4(O)C[C@H](O)CCC34/C=N/NC(=O)c3ccccc3Cl)C1(O)CCC2C1=CC(=O)OC1 (stereo not given in full)
  .	3	6	-4	-17	-2	i	16
#38 CCN(CC)c1ccc(N=Cc2c(O)n(-c3ccccc3C)c(=O)[nH]c2=O)cc1
  -3	-26	5	-2	17	13	i	18
#39 C=CCn1c(O)c(C(C)=Nc2cccc(C(=O)O)c2)c(=O)[nH]c1=O
  .	-11	0	-1	2	-7	i	-3
#40 O=C1C=C2C=C[C@H]3C[C@]2(O1)[C@@H]1CCCCN13
  -12	1	2	5	-25	2	i	2

Values in list order from above.
Compounds 6 to 9 in MT1-MMP act inh read 8, -3, ., -4

Next part.
Fields: Yeast UUG start	MT1-MMP act inh	MT1-MMP act inh RFP	CSC inhib	Env fusion inh	eIF4H inh	Rce1 inhib	PABP polyA inh
#41 C/C(=N\Nc1cccc2ccccc12)c1c(O)n(Cc2ccccc2)c(=O)[nH]c1=O
  -10	-7	6	11	.	?	i	12
#42 O=C1/C(=C/c2cc([N+](=O)[O-])ccc2Cl)N2CCC1CC2
  -17	-2	-1	5	7	-2	i	-4
#43 OC(c1ccccc1)(c1ccccc1)C1CN2CCC1CC2 (stereo not given)
  .	-23	-7	6	-6	2	i	-3
#44 CCOC(=O)C1SC2(C(F)F)CC1(O)c1c(c(OC)c3occc3c1OC)O2 (stereo not given)
  -7	-6	-3	2	.	8	i	13
#45 Cc1sc2ncnc(N3CCC(C(=O)Nc4ccc(C#N)c(Cl)c4)CC3)c2c1C
  -17	1	-6	-6	14	.	i	.
#46 CCCCCc1cc(O)c2c3c(c(=O)oc2c1)CN(C)CC3
  .	4	-3	84*	-4	-6	i	-15
#47 CNC(C)(C)Cc1ccccc1
  -10	-1	7	-2	-1	.	.	.
#48 NCC1(c2ccc3c(c2)OCCO3)CCCC1
  12	4	7	3	.	0	i	4
#49 CCOC(=O)c1c(N)n(Cc2ccccc2)c2nc3ccccc3nc12
  -10	-33	-1	6	.	4	i	-2
#50 Cc1ccc(-c2cc(-c3ccc(C)cc3)[n+](-c3ccccc3)c(-c3ccc(C)cc3)c2)cc1
  -13	-14	-32	48	.	.	+	.
#51 COC(=O)C1=C(c2ccc(OC(F)(F)F)cc2)C[C@@H]2CC[C@H]1N2C(=O)NCCc1ccccc1
  -1	31*	-7.9*	16	-12	.	.	.
#52 O=C(Nc1cccc(Br)c1)c1c(O)c2c(n(Cc3ccccc3)c1=O)CCCC2
  -5	0	-6	-11	2	1	i	3
#53 COC(=O)C1=C(c2ccc(F)cc2OCc2ccccc2)C[C@@H]2CC[C@H]1N2C(=O)NC1CCN(Cc2ccccc2)CC1
  -5	-6	-6	14	-56	.	.	.
#54 Oc1ccc(Cl)c(Cl)c1Cl
  1	1	2	-7	.	.	.	.
#55 CN1CCC(C)(O)C2CCCCC21 (stereo not given)
  -6	3	6	-18	21	20	i	-6
#56 O=C1Nc2ccccc2/C1=C/c1nc2ccccc2c(=O)n1-c1ccc(O)cc1
  -13	-4	-20	17	4	8	i	12
#57 O=C(Nc1ccc(F)cc1)OC1CN2CCC1CC2 (stereo not given)
  .	-2	3	-1	-16	1	.	-12
#58 COc1ccc2c(CN3CC=C(c4ccccc4)CC3)cc(=O)oc2c1
  .	-3	-2	1	10	-5	i	1
#59 CC(C)OP(=O)(OC(C)C)C(O)c1ccccc1F (stereo not given)
  -7	-4	3	3	-23	5	i	-3
#60 O=C1NC(=O)C(CCc2ccncc2)(CCc2ccncc2)C(=O)N1C1CCCCC1
  .	-42	-33	-9	10	-2	i	6
#61 O=c1[nH]c(=O)n(-c2cccc3ccccc23)c(O)c1/C=N/N1CCCCC1
  15	-3	1	-8	2	-1	i	-3
#62 O=c1c2ccccc2nc(N2CCCC2)n1-c1ccc(Cl)cc1
  -22	3	-2	12	7	-6	i	-8
#63 CCN1CCN(C(=O)COc2ccc(S(=O)(=O)NC(C)C)cc2)CC1
  -18	1	8	-6	.	-2	i	-1
#64 CCOc1ccc(N2C(=O)NC(=O)/C(=C\c3cc(OC)c(OC)cc3[N+](=O)[O-])C2=O)cc1
  1	5	-5	2	.	45	i	-9
#65 CC1CC(NC(=O)C2C3CCC(O3)C2C(=O)O)CC(C)(C)C1 (stereo not given)
  .	2	6	9	1	0	i	8
#66 CC(Cc1ccccc1)N1Cc2ccccc2C1 (stereo not given)
  -6	5	6	-6	.	0	i	10
#67 Fc1ccccc1CCNCc1cccc(Cl)c1Cl
  -8	-5	1	-2	.	4	i	2
#68 Cc1nc2ccc(N3CCN(C)CC3)cc2nc1C
  .	1	2	-13	0	1	i	-11

This is a subset (hit frequency here may not be typical).
